Assay outcomes deposited in PubChem by National Center for Advancing Translational Sciences (NCATS).
2A StopGo – High Throughput Screening for Foot and Mouth Disease Virus Antivirals. actives 1.2% (n = 410,000). AID 1159524, 2015. Potency, µM (series often up to 57.9 µM), without a hit: top-dose signal change, negative = less light. human cells with a luciferase reporter of 2A StopGo recoding; control for the full effect not named in the record; active = well fitted falling curve with a large enough effect; inconclusive = small, poorly fitted or top-dose-only effect; inactive = no such curve, though single readings can be large or run the other way; tested in HEK293T cells; further: nearly all actives have a fitted effect of over 45% in size; luciferase light after 4 h
RE007 growth inh – qHTS Assay for Inhibitors of the HIV-1 protein Vpr; actives 0.21% (n = 360,000); S. pombe RE007 Vpr strain, BacTiter-Glo ATP luminescence, 24 h; control for the full effect not named in the record; Potency, µM (titrated, usually from 92.2 µM), inactives show at the top dose activity change, negative = less growth; AID 651644, 2012; active = well fitted falling curve with a large enough effect; inconclusive = small, poorly fitted or top-dose-only effect; inactive = no such curve, though single readings can be large or run the other way;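 further: nearly all actives have a fitted effect of over 50% in size; the assay follows cell death caused by Vpr and the record does not say whether a fall means rescue or toxicity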
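Fission yeast RE007 carrying one integrated HIV-1 vpr copy, seeded at OD 0.01 in PMG+AL medium with 23 nL pinned compound. Grown 24 h at 30 degrees; viability read by BacTiter-Glo luminescence after 5 min.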
Numbers without * were called inactive; & = joins results of further samples; [ ] = another dose, or the depositor's remark. On the % scale 0 is the no-effect control and ±100 the full control effect; potency means the concentration at half of the fitted maximal effect. These rows are one share of the data, so the mix of outcomes need not match the whole.

How did NC(=O)c1ccc(NC(=O)COC(=O)CCC2CCCC2)cc1 do in these assays?
2A StopGo: 0%; RE007 growth inh: -1%

Results for COc1ccc([N+](=O)[O-])cc1NCc1c(F)cccc1F ?
2A StopGo: -2%; RE007 growth inh: -5%

How did CCN(C(=O)COC(=O)CCOc1ccccc1C)c1c(N)n(Cc2ccccc2)c(=O)[nH]c1=O do in these assays?
2A StopGo: -21%; RE007 growth inh: 13%

Results for O=S1(=O)CC(N2CCCCC2)CN1Cc1cn(Cc2cccc(C(F)(F)F)c2)nn1 (stereo not given) ?
2A StopGo: -10%; RE007 growth inh: -4%

How did COc1ccc(NC(=O)C[C@H]2C(=O)N(c3ccc(Br)cc3)C[C@@H]2c2ccc(OC)cc2)cc1 do in these assays?
2A StopGo: 20%; RE007 growth inh: -4%

What do the screens show for `CC(NC(=O)c1cccc(S(=O)(=O)N2CCN(Cc3ccccc3)CC2)c1)c1ccccc1Cl` (stereo not given)?
2A StopGo: -22%; RE007 growth inh: -1%

How did CCCCN1C(=O)C(CC(=O)NC2CC2)CC(C(=O)N2CCOCC2)=C1C (stereo not given) do in these assays?
2A StopGo: 0%; RE007 growth inh: 7%

How did COc1ccc(C(=O)N2CCC2(C)C(=O)O)cc1C(F)(F)F (stereo not given) do in these assays?
2A StopGo: -13%; RE007 growth inh: -16%

Results for CC(C)n1c(=O)c2ccccc2n1Cc1cn(Cc2cccs2)nn1 ?
2A StopGo: -3%; RE007 growth inh: 9%

How did COCOc1cccc(CN2CCC(C)(Oc3cccc(OC)c3)C2)c1 (stereo not given) do in these assays?
2A StopGo: -16%; RE007 growth inh: -11%[18.4 µM]

What do the screens show for `NCCNC(=O)Cc1ccc(NC(=O)Cc2ccc(Nc3ncnc4c3ncn4[C@@H]3O[C@H](CO)[C@@H](O)[C@H]3O)cc2)cc1`?
2A StopGo: -9%&7%; RE007 growth inh: -7%[18.4 µM]

What do the screens show for `CCNC(=O)N1C[C@H]2CON(C)[C@H]2C[C@H]1c1ccccc1Br`?
2A StopGo: 0%; RE007 growth inh: 16%

What do the screens show for `CC1(C(=O)NS(=O)(=O)C2CC2)CCCN(C(=O)COc2ccc(Cl)cc2Cl)C1` (stereo not given)?
2A StopGo: -10%; RE007 growth inh: -9%

How did C[C@@H]1CN([C@H](C)CO)C(=O)c2c(c3ccccc3n2C)-c2ccccc2CO[C@H]1CN(C)C(=O)CCC(F)(F)F do in these assays?
2A StopGo: inconclusive; RE007 growth inh: 14%

How did CCCCCNC(=O)C(c1ccccc1F)n1c(=O)c(-c2ccco2)nc2ccccc21 (stereo not given) do in these assays?
2A StopGo: -4%; RE007 growth inh: 0%

Results for Cc1c(C(=O)NCc2ccc3c(c2)OCCO3)sc(=O)n1Cc1ccccc1C(F)(F)F ?
2A StopGo: -12%; RE007 growth inh: 7%[18.4 µM]

Results for COc1ccc(F)cc1-c1cc(NC(C)=O)c2ncc(-c3cc(OC)c(OC)c(OC)c3)n2c1 ?
2A StopGo: inconclusive; RE007 growth inh: 18%

What do the screens show for `O=C(NCC1CC1)c1ccc(-n2ccnc2)c2ccoc12`?
2A StopGo: 0%; RE007 growth inh: 9%

How did COCCNc1nc(-c2ccc(OC)cc2C)c2sc(-c3ccccc3)cc2n1 do in these assays?
2A StopGo: -24%; RE007 growth inh: -3%

Results for CC(C)NC(=O)C1(C)Cc2c(-c3ccc(N(C)C)cc3)ccnc2O1 (stereo not given) ?
2A StopGo: -16%; RE007 growth inh: -7%[18.4 µM]

Results for CC(C)(C)c1ccc(C2=CC(c3ccccc3F)n3ncnc3N2)cc1 (stereo not given) ?
2A StopGo: 0%; RE007 growth inh: -8%

How did COc1cc(S(=O)(=O)N2CCN(C(=O)c3cccs3)CC2)ccc1NC(C)=O do in these assays?
2A StopGo: -18%; RE007 growth inh: 5%

What do the screens show for `Cc1ccc(S(=O)(=O)N2[C@@H](c3ccc(Cl)cc3)C(C(=O)OC(C)(C)C)=CC[C@H]2c2ccc(Cl)c(Cl)c2)cc1`?
2A StopGo: -27%; RE007 growth inh: 5%

How did COc1ccc(NC(=O)N(C)[C@H]2C[C@H]3c4[nH]c5ccc(-c6cccc(C)c6)cc5c4CCN3C[C@H]2[C@H](C)O)cc1 do in these assays?
2A StopGo: -25%; RE007 growth inh: 12%

How did CCCS(=O)(=O)NC(=O)C1(C)CCN1C(=O)Cc1ccc(-c2ccccc2)cc1 (stereo not given) do in these assays?
2A StopGo: -16%; RE007 growth inh: 15%

What do the screens show for `CC(=O)N1Cc2cc(C(=O)NCC(F)(F)F)nc(-c3cccc(-c4cc5ccccc5o4)c3)c2[C@@H]1CCO`?
2A StopGo: -10%; RE007 growth inh: -3%

How did Cc1cccc(C)c1NC(=O)CN1CCN(C(=O)CCC(=O)N2CCC(c3ccccc3)=N2)CC1 do in these assays?
2A StopGo: -20%; RE007 growth inh: -2%

How did CCCCNC(=O)c1nc(-c2cccnc2)oc1-c1ccc(OC(F)(F)F)cc1 do in these assays?
2A StopGo: -13%; RE007 growth inh: -2%

How did CCN(CC)C(=O)C1=C(C)N(CCC2=CCCCC2)C(=O)C(CC(=O)NCc2cccs2)C1 (stereo not given) do in these assays?
2A StopGo: 26%; RE007 growth inh: -17%

How did COC(=O)C1=C(c2cc3ccccc3o2)C[C@@H]2CC[C@H]1N2C(=O)NC(C)C do in these assays?
2A StopGo: -14%; RE007 growth inh: 3%

Results for CN1[C@@H](COCc2ccccc2)C=CS1(=O)=O ?
2A StopGo: -23%; RE007 growth inh: 3%

How did C[C@@H]1COc2cccc(N(C)CCO)c2S(=O)(=O)N1 do in these assays?
2A StopGo: -13%; RE007 growth inh: 2%

How did CCN(CC)C(=O)C1=C(C)N(Cc2ccc(F)cc2)C(=O)C(CC(=O)NCCN2CCOCC2)C1 (stereo not given) do in these assays?
2A StopGo: 0%; RE007 growth inh: -18%

How did COc1ccc([C@H]2CC(=O)C[C@@H](CCn3cc(Cc4ccccc4)nn3)O2)cc1 do in these assays?
2A StopGo: -11%; RE007 growth inh: 1%

Results for COc1ccc(OCCNC(=O)c2ccc3nc(C)c(N(C)C(=O)CCc4ccccc4)n3c2)cc1 ?
2A StopGo: -5%; RE007 growth inh: -9%

Results for OC[C@H]1O[C@@H](c2nc(-c3cccc4ccccc34)no2)[C@H](O)[C@@H]1O ?
2A StopGo: 28%; RE007 growth inh: 2%

What do the screens show for `C/C=C/c1cccc(-c2nc(C(=O)N3CCN(C)CC3)cc3c2[C@@H](CCO)N(C(=O)NC(C)C)C3)c1`?
2A StopGo: -7%; RE007 growth inh: 21%

How did CCCCn1nnnc1C1(C)CCC(=O)N1CCc1ccc(O)cc1 (stereo not given) do in these assays?
2A StopGo: -25%; RE007 growth inh: 16%

Results for COCCNC(=O)C1(C)CCN(C(=O)c2ccc(F)c(C)c2)C1 (stereo not given) ?
2A StopGo: -24%; RE007 growth inh: 4%

Results for Cc1cn([C@H]2C[C@H](O)[C@@H](CNCc3cnc(N4CCOCC4)s3)O2)c(=O)[nH]c1=O ?
2A StopGo: -5%; RE007 growth inh: 0%

Among those listed so far, these contain a CF3 group:
Results for O=S1(=O)CC(N2CCCCC2)CN1Cc1cn(Cc2cccc(C(F)(F)F)c2)nn1 (stereo not given) ?
2A StopGo: -10%; RE007 growth inh: -4%

How did COc1ccc(C(=O)N2CCC2(C)C(=O)O)cc1C(F)(F)F (stereo not given) do in these assays?
2A StopGo: -13%; RE007 growth inh: -16%

How did C[C@@H]1CN([C@H](C)CO)C(=O)c2c(c3ccccc3n2C)-c2ccccc2CO[C@H]1CN(C)C(=O)CCC(F)(F)F do in these assays?
2A StopGo: inconclusive; RE007 growth inh: 14%

Results for Cc1c(C(=O)NCc2ccc3c(c2)OCCO3)sc(=O)n1Cc1ccccc1C(F)(F)F ?
2A StopGo: -12%; RE007 growth inh: 7%[18.4 µM]

What do the screens show for `CC(=O)N1Cc2cc(C(=O)NCC(F)(F)F)nc(-c3cccc(-c4cc5ccccc5o4)c3)c2[C@@H]1CCO`?
2A StopGo: -10%; RE007 growth inh: -3%

How did CCCCNC(=O)c1nc(-c2cccnc2)oc1-c1ccc(OC(F)(F)F)cc1 do in these assays?
2A StopGo: -13%; RE007 growth inh: -2%

Continued.
How did O=C(Nc1ccccc1F)c1ccccc1C(=O)Nc1ccccc1F do in these assays?
2A StopGo: -8%; RE007 growth inh: -3%

How did C[C@H](CO)N1C[C@H](C)[C@H](CN(C)Cc2ccncc2)Oc2cc(-c3ccccc3F)ccc2S1(=O)=O do in these assays?
2A StopGo: -23%; RE007 growth inh: 36%

How did COc1cc2oc(=O)cc(CN3CCN(c4ccccc4OC)CC3)c2cc1Cl do in these assays?
2A StopGo: -20%; RE007 growth inh: -2%

What do the screens show for `CC1(C(=O)NCC(F)(F)F)CCN1C(=O)C1(c2ccccc2)CC1` (stereo not given)?
2A StopGo: -21%; RE007 growth inh: 14%

What do the screens show for `COc1ccc2c(C)cc(=O)sc2c1`?
2A StopGo: -6%; RE007 growth inh: 19%

Results for O=C(NC1CCCC1)C(C1CC1)n1c(-c2cc3ccccc3[nH]2)nc2ccccc21 (stereo not given) ?
2A StopGo: 29%; RE007 growth inh: -13%

Results for COc1ccccc1NS(=O)(=O)c1cc(C(=O)N2CCN(C(=O)c3ccco3)CC2)ccc1F ?
2A StopGo: -17%; RE007 growth inh: 5%

What do the screens show for `C[C@@H]1CN([C@@H](C)CO)C(=O)CCCn2cc(nn2)CO[C@H]1CN(C)S(=O)(=O)c1ccc2c(c1)OCCCO2`?
2A StopGo: -10%; RE007 growth inh: -23%

Results for CC(C)(OOC1(c2ccccc2)NC(=O)c2ccccc21)c1ccccc1 (stereo not given) ?
2A StopGo: 3%; RE007 growth inh: -5%

How did CCCc1c(C(=O)N/N=C/C=C/c2ccccc2)nnn1-c1nonc1N do in these assays?
2A StopGo: -30%; RE007 growth inh: 3%

How did C[C@H]1CN([C@@H](C)CO)C(=O)c2cc(-c3cccc(F)c3)cnc2O[C@H]1CN(C)C(=O)c1cnccn1 do in these assays?
2A StopGo: 0%; RE007 growth inh: 9%

What do the screens show for `CCCC(=O)N1CCCC1(C)C(=O)Nc1cc(OC)c(OC)c(OC)c1` (stereo not given)?
2A StopGo: -19%; RE007 growth inh: -1%

What do the screens show for `Nc1nc2ccccc2cc1C(=O)NCCCCc1ccccc1`?
2A StopGo: inconclusive; RE007 growth inh: inconclusive

Results for Cc1cc(F)cc(-c2cc(C(=O)NCc3ccccc3)[nH]n2)c1 ?
2A StopGo: 34%[activator]; RE007 growth inh: 13%

How did CC1C(=O)N(Cc2cn(CC3CCCCC3)nn2)CCS(=O)(=O)N1Cc1ccc(-c2ccc(Cl)cc2)cc1 (stereo not given) do in these assays?
2A StopGo: inconclusive; RE007 growth inh: -19%

What do the screens show for `O=C1C=C(c2cccnc2)CCC1`?
2A StopGo: -16%; RE007 growth inh: -3%

What do the screens show for `CCCNC(=O)N(C)C[C@H]1Oc2ncc(Br)cc2C(=O)N([C@H](C)CO)C[C@H]1C`?
2A StopGo: -3%; RE007 growth inh: -1%

Results for COc1ccc(S(=O)(=O)N2CCOC2CNC(=O)C(=O)NCCCN2CCCC2=O)cc1OC (stereo not given) ?
2A StopGo: -17%; RE007 growth inh: 5%

How did COc1ccc(C(=O)OCC(=O)N2CCN(S(=O)(=O)c3ccc(C)cc3)CC2)cc1[N+](=O)[O-] do in these assays?
2A StopGo: -21%; RE007 growth inh: 13%

Results for CC1(C(=O)Nc2ccc(F)c(Cl)c2)Cc2c(-c3cccc(C(F)(F)F)c3)ccnc2O1 (stereo not given) ?
2A StopGo: -24%; RE007 growth inh: -6%

5 entries drawn at random from those above, as already listed:
What do the screens show for `CC1(C(=O)NS(=O)(=O)C2CC2)CCCN(C(=O)COc2ccc(Cl)cc2Cl)C1` (stereo not given)?
2A StopGo: -10%; RE007 growth inh: -9%

How did C[C@H](CO)N1C[C@H](C)[C@H](CN(C)Cc2ccncc2)Oc2cc(-c3ccccc3F)ccc2S1(=O)=O do in these assays?
2A StopGo: -23%; RE007 growth inh: 36%

Results for CC(C)(C)c1ccc(C2=CC(c3ccccc3F)n3ncnc3N2)cc1 (stereo not given) ?
2A StopGo: 0%; RE007 growth inh: -8%

How did CCCS(=O)(=O)NC(=O)C1(C)CCN1C(=O)Cc1ccc(-c2ccccc2)cc1 (stereo not given) do in these assays?
2A StopGo: -16%; RE007 growth inh: 15%

How did O=C(Nc1ccccc1F)c1ccccc1C(=O)Nc1ccccc1F do in these assays?
2A StopGo: -8%; RE007 growth inh: -3%
